Assay outcomes deposited in PubChem BioAssay by National Center for Advancing Translational Sciences (NCATS).
2A StopGo: lowers the luciferase signal of an FMDV 2A StopGo reporter; human cells with a luciferase reporter of 2A StopGo recoding; control for the full effect not named in the record; hit rate 1.2% among 410,000; Potency, µM (top dose mostly 57.9 µM), inactives show at the highest dose signal change, negative = less light; active = well fitted falling curve with a large enough effect; inconclusive = small, poorly fitted or top-dose-only effect; inactive = no such curve, though single readings can be large or run the other way; tested in HEK293T cells; also: % is scaled to controls: 0 for no effect and ±100 for the full control effect; nearly all actives have a fitted effect of over 45% in size; luciferase light after 4 h
Cruzain inh Det: inhibitors of Trypanosoma cruzi cruzain with detergent; purified cruzain, Z-FR-AMC fluorescence, 0.01% Triton; hit rate 0.43% among 200,000; P25779; Potency, µM, without a hit: max response, negative = inhibition, hits mostly inhibitors; active = well fitted curve in the direction sought with a large enough effect; inconclusive = small, poorly fitted or top-dose-only effect, or another doubt; inactive = no such curve, though single readings can be large; an effect the other way counts as inactive or inconclusive;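 also: plate controls were neutral wells for no effect and buffer without enzyme for full effect; nearly all actives have a fitted effect of over 40% in size; top concentration of the series not given in the record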
Target sequence (P25779 123-467 limits assumed): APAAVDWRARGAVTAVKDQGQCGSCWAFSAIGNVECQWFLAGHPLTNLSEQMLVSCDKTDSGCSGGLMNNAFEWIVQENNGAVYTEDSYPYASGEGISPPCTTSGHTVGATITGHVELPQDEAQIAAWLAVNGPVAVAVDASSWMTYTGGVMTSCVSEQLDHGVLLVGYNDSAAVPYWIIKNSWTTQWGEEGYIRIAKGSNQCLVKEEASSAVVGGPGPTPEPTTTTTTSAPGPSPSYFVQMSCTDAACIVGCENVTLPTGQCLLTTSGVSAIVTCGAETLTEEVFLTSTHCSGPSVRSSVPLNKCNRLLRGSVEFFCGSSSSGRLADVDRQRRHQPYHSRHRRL
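Z-FR-AMC hydrolysis (2 uM substrate) by cruzain (1.5 nM) monitored kinetically at ex 360/em 450 nm after 15 min room-temperature compound exposure; 0.01% Triton X-100, pH 5.5, 5 mM DTT.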
NS1 function inh: influenza NS1 inhibition; S. cerevisiae slowed by influenza A NS1, growth recovery by OD600; Potency, µM (series often up to 46.1 µM), for inactives: at the top dose activity, positive = more growth; hit rate 0.4% among 270,000; AID 2326; also: actives are rising curves; nearly all actives have a fitted effect of over 50% in size
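S. cerevisiae expressing influenza A NS1, grown in glucose, washed, then diluted 1:100 into pH 6.0 -URA galactose medium with 23 nl compound. Growth recovery read as OD600; NS1-free strain serves as control.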
Marburg entry inh: Marburg virus entry inhibition; Potency, µM (doses to about 37.8 µM), for inactives: top-dose activity change, negative = inhibition, actives largely listed as inhibitors; Marburg virus pseudotyped entry inhibition, cell reporter; control for the full effect not named in the record; about a third of the inactives were read at about 46 µM; hit rate 1.8% among 300,000; active = well fitted inhibition curve with a large enough effect; inconclusive = small, poorly fitted or top-dose-only effect, or effect the other way; inactive = flat fitted curve, though single readings scatter; tested in HEK293 cells; about a fifth of its hits are not listed in these tables; also: % is scaled to controls: 0 for no effect and ±100 for the full control effect; luciferase read-out
SARS PLpro yeast: SARS-CoV PLP inhibition in yeast | S. cerevisiae expressing SARS-CoV PLpro, growth rescue; control for the full effect not named in the record | Potency, µM (top dose mostly 32.9 µM), for the others: top-dose activity, positive = growth rescue | hit rate 0.19% among 330,000; also: 0% is about no effect; nearly all actives have a fitted effect of over 55% in size; growth read by luminescence after 48 h
Cruzain noTriton: inhibitors of Trypanosoma cruzi cruzain without detergent; hit rate 2.3% among 200,000; purified cruzain, Z-FR-AMC fluorescence, no detergent; P25779; Potency, µM, inactives show max response, negative = inhibition, actives largely listed as inhibitors; AID 1476; active = well fitted curve in the direction sought with a large enough effect; inconclusive = small, poorly fitted or top-dose-only effect, or another doubt; inactive = no such curve, though single readings can be large; an effect the other way counts as inactive or inconclusive;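 also: plate controls were enzyme without inhibitor for no effect and buffer without enzyme for full effect; nearly all actives have a fitted effect of over 40% in size; top concentration of the series not given in the record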
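Purified cruzain at 1.5 nM, pre-incubated 15 min with compound at room temperature in 100 mM sodium acetate pH 5.5, 5 mM DTT, 0.00005% Triton X-100. Reaction started with 2 uM Z-FR-AMC; AMC fluorescence increase over 60 s gives rate.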
LASV entry inh: blocks Lassa virus binding to or entry into cells; Lassa virus pseudotype entry inhibition, cell reporter; control for the full effect not named in the record; Potency, µM (doses to about 37.9 µM), for inactives: at the highest dose activity change, negative = inhibition, actives largely listed as inhibitors; hit rate 1.2% among 300,000; AID 540256; active means well fitted inhibition curve with a large enough effect; inconclusive means small, poorly fitted or top-dose-only effect, or effect the other way; inactive means flat fitted curve, though single readings scatter; tested in HEK293 cells; also: % is scaled to controls: 0 for no effect and ±100 for the full control effect; nearly all actives have a fitted effect of over 50% in size; luciferase read-out
RE007 growth inh: less growth of the S. pombe RE007 Vpr strain; S. pombe RE007 Vpr strain, BacTiter-Glo ATP luminescence, 24 h; control for the full effect not named in the record; Potency, µM (series often up to 92.2 µM), for inactives: top-dose activity change, negative = less growth; hit rate 0.21% among 360,000; active = well fitted falling curve with a large enough effect; inconclusive = small, poorly fitted or top-dose-only effect; inactive = no such curve, though single readings can be large or run the other way;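 also: % is scaled to controls: 0 for no effect and ±100 for the full control effect; nearly all actives have a fitted effect of over 50% in size; the assay follows cell death caused by Vpr and the record does not say whether a fall means rescue or toxicity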
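Fission yeast strain RE007, carrying one chromosomally integrated HIV-1 vpr copy, was seeded at OD 0.01 in PMG+AL medium with 23 nL pinned compound. After 24 h at 30 °C and 99% humidity, viability was read by BacTiter-Glo luminescence.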
The depositor's hits bear a star; ? = inconclusive; / = no result given; & = joins results of further samples; [ ] = remark or other dose. Unless noted, calls follow the shape of the dose curve; as a rule, active means well fitted rising curve with a large enough effect; inconclusive means small, poorly fitted or top-dose-only effect; inactive means no such curve, though single readings can be large or run the other way. Potency is read from the fitted curve at half-maximal effect. No enrichment for hits. Share with any hit: about 4.7%.

SMILES | 2A StopGo | Cruzain inh Det | NS1 function inh | Marburg entry inh | SARS PLpro yeast | Cruzain noTriton | LASV entry inh | RE007 growth inh
COc1ccc(-c2c(C(F)(F)F)nn(C)c2NC(=O)c2ccco2)cc1 | -13% | / | 0% | / | 2% | / | / | -3%
O=C(COC(=O)c1ccc[nH]c1=O)NC1CCCCCCC1 | 11% | / | / | 2%[46.1 µM] | 0% | / | -25% | 21%
CCCCC1(Br)C(=O)N(c2ccccc2)N(c2ccccc2)C1=O | -18% | / | / | 23% | -3% | / | 23% | 24%
O=C(Nc1cnn(Cc2ccc(F)cc2)c1)c1cnn2c(C(F)F)cc(-c3ccccc3)nc12 | -18% | / | -6% | ? | 1% | / | -13%[46.1 µM] | -20%&3%
Cc1nnc(SCC(=O)NC2CCCCC2)s1 | 12% | / | / | 15%[46.1 µM] | -3% | / | -15% | -9%
CCOC(=O)c1oc2cccc(O)c2c1C | 62%[activator] | -1.1% | -117% | ? | -18% | -7% | 30% | 7%
O=C(NCCN1CCOCC1)C1CC(=O)N(c2ccc(F)c(Cl)c2)C1 (stereo unspecified) | 11% | 3.2% | -2% | 9% | 4% | -1% | -13% | 0%
COCCCN1C(=O)C(=O)/C(=C(/O)c2ccc(S(=O)(=O)N3CCCCC3)cc2)C1c1ccc(F)cc1 (stereo unspecified) | 4% | / | -1% | / | -3% | / | / | 0%
Cc1cc(C)nc(-n2ncc3c2CCCC3=O)n1 | -14% | / | 5% | / | -1% | / | / | -1%
C#CCOCCOCCOCCNc1nc(N2CCN(C(=O)Cn3cc(CCO)nn3)CC2)nc(N2CCN(C(=O)[C@H]([C@@H](C)O)n3cc(CCCCN)nn3)CC2)n1 | -14% | 0.2% | -7% | 17% | 12% | 6% | 2% | -1%
Cc1ccccc1NC(=O)CCC(=O)N/N=C/c1ccncc1 | 3% | -3.7% | 11% | -1% | 4% | ? | / | -3%
Cc1ccccc1Nc1c([N+](=O)[O-])ccc2c1=NC1(CCCCC1)N=2 | 0% | 9.0% | -7% | 3% | -1% | -8% | 10% | 1%
Fc1ccc(Cn2cccc2C2=NC(c3ccccc3)CO2)cc1 (stereo unspecified) | 18% | / | / | 26% | -4% | / | 13% | 19%
O=C(NCc1ccc2c(c1)OCO2)C1CC(c2ccc(Cl)c(Cl)c2)=NO1 (stereo unspecified) | -16% | -5.7% | -25% | 4%[46.1 µM] | -2% | 0% | 9% | -5%
COc1ccc(C(=O)/C=C/NCc2ccc(F)cc2)cc1OC | -1% | / | -4% | -28%[14.2 µM] | -2% | / | ? | -12%
CCCc1cc(=O)[nH]c(SCC(=O)NCCC2=CCCCC2)n1 | 2% | / | / | 14%[46.1 µM] | -1% | / | -2% | 14%
O=C(Nc1ncc(Cc2cccc(Cl)c2)s1)c1cccs1 | 14% | -6.9% | -101% | 10µM* | -6% | ? | 8.9µM* | ?
NCCc1c[nH]c2ccc(C(N)=O)cc12 | -18%&-15%&-15% | -2.1%&-0.9% | -4% | ? | -2% | -3%&4% | 9% | 7%[18.4 µM]
CCC(CC)c1nnc(NC(=O)c2ccc3c(c2)OCO3)s1 | 31%[activator] | / | 21% | ? | 6% | / | ? | -11%
O=C(NCCCN1CCN(c2ccccc2F)CC1)c1nnc(Cc2ccc(Cl)cc2Cl)o1 | -28% | -2.4% | / | -28%[46.1 µM] | / | 8% | 7%[46.1 µM] | /
N=c1nc(-c2ccccc2)ccn1O | -6% | 1.6% | -2% | -1%&-1%[46.1 µM] | -2% | -10% | 5% | 0%
COc1ccc(S(=O)(=O)CCC(=O)NCCc2ccc(Cl)cc2)cc1 | 1% | 6.0% | -5% | 24% | -5% | 3% | -1% | 6%
COc1ccc(-n2c(SCC(=O)N3CCN(c4ccccc4)CC3)nc3c(c2=O)SCC3)cc1 | -27% | -6.6% | 20% | -4% | 13% | ? | / | 19%
CC(NC(=O)c1ccc(C(C)(C)C)cc1)C(c1cccs1)N1CCOCC1 (stereo unspecified) | 15% | / | -9% | / | 1% | / | / | 7%
O=S(=O)(/N=C(/Nc1ccc(Cl)c(S(=O)(=O)Nc2ccccc2Cl)c1)c1ccc(F)cc1)c1ccccc1 | 17%&0% | / | 8% | ? | 1% | / | ? | -6%&-5%
CC(C)NC(=O)NC1C2CC3CC(C2)CC1C3 (stereo unspecified) | -3% | 0.7% | -53% | 6% | -18% | -1% | 0% | -19%
O=C(O)c1ccccc1C(=O)Nc1ccc(S(=O)(=O)N2CCCC2)cc1 | -8% | / | 6% | -5%[46.1 µM] | 4% | / | 10% | -4%
CCN1C/C(=C/c2cccc([N+](=O)[O-])c2)C(=O)/C(=C/c2cccc([N+](=O)[O-])c2)C1 | 3.5µM* | -6.8% | -18% | 15µM* | -23% | ? | 2.8µM* | 21%
CC(C)COc1ccc(C(=O)N(Cc2cccc(F)c2)C2CCS(=O)(=O)C2)cc1 (stereo unspecified) | -9% | -7.2% | / | ? | / | ? | -29%[46.1 µM] | /
C=CCn1c(=NC(=O)c2sc3ccccc3c2Cl)sc2cc(S(N)(=O)=O)ccc21 | -25% | -26% | 10% | 4% | ? | 20µM* | -3% | 0%
COc1cccc(NS(=O)(=O)c2ccc3[nH]cc(C(=O)NCCc4ccc(C)cc4)c(=O)c3c2)c1 | -18% | 2.9% | / | / | 0% | 13µM* | -6%[46.1 µM] | /
C=CCN(c1ccccc1OC)S(=O)(=O)c1cccc(C(=O)OCC(=O)N2CC(C)OC(C)C2)c1 (stereo unspecified) | -18% | / | / | ? | -4% | / | ? | 21%
CN(C)/C=N/c1c(C#N)cnn1-c1ccc(C(F)(F)F)cn1 | / | 1.3% | -15% | 4% | -5% | 3% | 8% | 77%
C[N+]1(CC(=O)OCCCc2ccccc2)CCCC1 | -11% | -1.0% | -7% | ? | 5% | 2% | 1% | 5%
Cc1ccc(S(=O)(=O)N(C)C)cc1NC(=O)C(C)Sc1ccccc1 (stereo unspecified) | -3% | / | / | 0%[46.1 µM] | 1% | / | ? | 0%
CC1=C(C(=O)OCc2ccccc2)C(c2ccc(N(C)C)cc2)NC(=O)N1 (stereo unspecified) | / | -7.6% | -4% | -8% | -24% | -12% | ? | 4%
COCCN(C(=O)COC(=O)CCC(=O)c1ccc(Cl)cc1)c1c(N)n(Cc2ccccc2)c(=O)[nH]c1=O | -4% | / | 2% | ? | -2% | / | -1% | 21%
O=C(c1ccc2c(c1)N(Cc1ccc(Cl)cc1)C(=O)c1ccccc1S2=O)N1CCN(c2ccccc2F)CC1 (stereo unspecified) | -4% | -1.3% | / | 16%[46.1 µM] | / | -15% | ? | /
Cc1ccc(/C=N/Nc2nc(N3CCCCC3)nc(N3CCCCC3)n2)o1 | -18% | / | / | 1%[46.1 µM] | 0% | / | ? | 3%
CC(=O)Nc1ccccc1NC(=O)C/C(C)=N/NC(=O)c1cccnc1 | 24% | / | 4% | -20%[46.1 µM] | 0% | / | 20%[46.1 µM] | -7%
N#CCCN(C(=O)COC(=O)c1cc(=O)c2ccccc2o1)c1ccccc1 | -21% | / | / | 12% | 4% | / | -13% | 8%
COC(=O)CCc1nc2cc(Cl)ccc2n(Cc2ccccc2)c1=O | 21% | / | -16% | / | -1% | / | / | 14%
O=C(NC(=S)Nc1ccc(F)cc1)c1ccc2c(c1)OCCO2 | 0% | / | 4% | ? | -1% | / | 13µM* | -9%
COc1ccc(CC(=O)N2CCC(n3nccc3NC(=O)C3CCOC3)CC2)cc1 (stereo unspecified) | -2% | / | 0% | 5%[46.1 µM] | 8% | / | 13%[46.1 µM] | 1%
Cc1ccc(C(=O)CCC(=O)Nc2cccc(C(F)(F)F)c2)cc1 | -18% | 1.2% | -5% | 4% | 2% | -14% | -8% | ?
CCc1ccc(S(=O)(=O)NCCc2csc(-c3ccccc3)n2)s1 | / | -6.8% | -15%&-90% | ? | -19% | -9% | 10% | 4%
CCOc1cc([N+](=O)[O-])cc(/C=C2/NC(=O)N(Cc3ccccc3F)C2=O)c1O | -22% | / | 3% | / | 1% | / | / | -23%
O=C(O)[C@H](Cc1ccccc1)Nc1ccc([N+](=O)[O-])cn1 | -14% | / | -4% | / | 1% | / | / | 8%
CC(C)CNC(=O)C(=O)NCC1OCCN1S(=O)(=O)c1cccs1 (stereo unspecified) | 4% | / | / | ? | / | / | 0% | -16%
CCOC(=O)c1cc2c(c(CSc3nc4ccccc4c(=O)n3Cc3ccco3)c1)OCOC2 | -20% | -7.7% | 9% | ? | 0% | -13% | -29% | 6%
Cc1onc(-c2c(Cl)cccc2Cl)c1NC(=O)NNc1c(Cl)cncc1Cl | -28% | / | -2% | / | 3% | / | / | -3%
CN(C)CCNC(=S)Nc1ccc(F)c(F)c1F | 5% | / | 5% | ? | 0% | / | ? | -2%
COc1ccc(C2=NN(CC(=O)NCC(OC)OC)C(=O)CC2)cc1 | -1% | / | 4% | / | 0% | / | / | 0%
COc1cc(C(C#N)N2N=C(c3ccccc3)CC2c2ccccc2)ccc1O (stereo unspecified) | 73%[activator] | -7.8% | -4% | 2% | -14% | 2% | 10% | -22%
O=c1cc(Nc2ccc3c(c2)OCCO3)[nH]c(=O)n1-c1ccc(Br)cc1 | / | -1.0% | 7% | ? | 9% | -15% | ? | 4%
CC(=O)c1ccc(NC(=O)Nc2cccc(Cl)c2)cc1 | 11% | -12% | -112% | -27%[46.1 µM] | ? | -3% | -2% | 7%
Cc1ccc(S(=O)(=O)N2CCN(C3CCC(c4ccccc4)CC3)CC2)cc1 (stereo unspecified) | / | -6.5% | 12% | 8% | -8% | 4% | / | /
Cc1sc2nc(CN3CCCC3)nc(NCc3ccncc3)c2c1C | 15% | / | / | ? | -1% | / | 8% | -13%
Cc1c(CCOC(=O)C23CC4CC(CC(C4)C2)C3)sc[n+]1CC#N | ? | / | / | ? | -1% | / | ? | -13%
